Vaccinia inh: blocks a specific stage of Vaccinia orthopoxvirus infection, primary screen, cell-based, single point; Vaccinia-infected cells, mCherry/Venus stage reporter fluorescence; hits give low values; some inactives read as strong as hits; activity change (mCherry), % (no concentration beside the values); 0.01% of 89,000 active;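 active = mCherry past -33% and 40 or more points under the early reporter, replicates agreeing; inconclusive = past -33% without that gap or agreement; tested in A549 cells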;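 note: scaled between vehicle wells and reference inhibitor wells; 23 nL library stock went into each well; one replicate is shown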
Vaccinia inh Venus: second read-out of Vaccinia inh, no call of its own (marks repeat the call); activity change (Venus), %; measured here: Venus reporter, other viral stage;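 negative = less Venus signal; first of two replicates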
Active calls of the source: *. An excerpt; rates above refer to the full screens.

CC(C)NC(=O)Nc1cccc2c1O[C@@H](CN(C)CC1CC1)[C@H](C)CN([C@H](C)CO)C2=O was read as Vaccinia inh -1 and Vaccinia inh Venus -5.
`O=C(C[C@@H]1CC[C@@H]2[C@H](COC[C@@H](O)CN2CC2CCCCC2)O1)NCC1CC1` gave Vaccinia inh 2 and Vaccinia inh Venus 1.
CCCC#Cc1ccc([C@H]2[C@@H](CO)N3CCCCN(CC4CCOCC4)C[C@@H]23)cc1 was read as Vaccinia inh 6 and Vaccinia inh Venus 0.
`OC[C@H]1Nc2ccc(-c3cccc(F)c3)cc2[C@H]2[C@@H]1CCN2Cc1ccc(F)cc1` gave Vaccinia inh -19 and Vaccinia inh Venus 35.
For CN(C)C(=O)C[C@@H]1C[C@@H]2c3cc(NC(=O)c4ccc5c(c4)OCO5)ccc3O[C@@H]2[C@@H](CO)O1 the results were Vaccinia inh 14 and Vaccinia inh Venus 16.
CN1[C@@H]2c3ccc(-c4cccnc4)c(=O)n3C[C@H]1[C@H](CO)[C@H]2C(=O)N1CCC(Cc2ccccc2)CC1 was read as Vaccinia inh -4 and Vaccinia inh Venus -4.
`C[C@@H]1CN([C@H](C)CO)C(=O)c2cc(NC(=O)c3ccncc3)ccc2O[C@@H](C)CCCCO[C@H]1CN(C)C(=O)c1ccncc1` gave Vaccinia inh 23 and Vaccinia inh Venus 5.
For CN(C)CC(=O)N1[C@H](C#N)[C@H](c2ccccc2-c2ccccc2F)[C@H]1CO the results were Vaccinia inh 4 and Vaccinia inh Venus 0.
CC(C)NC(=O)N(C)C[C@@H]1Oc2cc(Br)ccc2S(=O)(=O)N([C@H](C)CO)C[C@@H]1C was read as Vaccinia inh 15 and Vaccinia inh Venus 10.
For C/C=C/c1cnc2c(c1)C(=O)N([C@@H](C)CO)C[C@@H](C)[C@H](CN(C)C(=O)Nc1ccccc1F)O2 the results were Vaccinia inh 8 and Vaccinia inh Venus -3.
O=C(c1ccncc1)N1C[C@H]2[C@@H](c3ccccc31)[C@H](CO)N2C(=O)Nc1ccc(F)cc1 was read as Vaccinia inh 11 and Vaccinia inh Venus 5.
Screening C[C@H](NC(=O)N(C)C[C@@H]1OCc2ccccc2-c2ccccc2C(=O)N([C@H](C)CO)C[C@@H]1C)c1ccccc1 returned Vaccinia inh 20 and Vaccinia inh Venus 11.
Screening C=CCNC(=O)[C@@H]1[C@H]2C(=O)O[C@H](c3ccccc3)[C@H](c3ccccc3)N2[C@H](c2ccc(OCCO)cc2)[C@@]12C(=O)Nc1ccc(C#CCCO)cc12 returned Vaccinia inh 20 and Vaccinia inh Venus 8.
For C[C@@H]1CN([C@@H](C)CO)C(=O)Cc2cc(NS(C)(=O)=O)ccc2O[C@H]1CN(C)Cc1ccc(-c2ccccc2)cc1 the results were Vaccinia inh inconclusive.
C[C@@H]1CN([C@H](C)CO)C(=O)c2cccc(NC(=O)Nc3ccccc3)c2O[C@@H]1CN(C)Cc1ccncc1 was read as Vaccinia inh -3 and Vaccinia inh Venus 3.
`COc1cccc(-c2ccc3c(c2)O[C@@H](CN(C)C(=O)C2CCCCC2)[C@H](C)CN([C@H](C)CO)S3(=O)=O)c1` gave Vaccinia inh inconclusive.
C[C@H](NC(=O)[C@@H]1[C@@H](CO)[C@@H]2Cn3c(cccc3=O)[C@@H]2N1CC1CCCCC1)c1ccccc1 was read as Vaccinia inh -26 and Vaccinia inh Venus -20.
For COc1ccc2c3c([nH]c2c1)[C@@H](CO)N(C(=O)NC(C)C)CC31CCN(C(=O)c2cnccn2)CC1 the results were Vaccinia inh 3 and Vaccinia inh Venus 4.
`CC(C)NC(=O)Nc1ccc2c(c1)C(=O)N([C@H](C)CO)C[C@H](C)[C@@H](CN(C)C(=O)NC1CCCCC1)OCCCC[C@@H](C)O2` gave Vaccinia inh 8 and Vaccinia inh Venus 2.
Screening CN(C)C(=O)C[C@H]1C[C@@H]2c3cc(NC(=O)NC4CCCCC4)ccc3O[C@@H]2[C@@H](CO)O1 returned Vaccinia inh 3 and Vaccinia inh Venus 14.
For CC(C)NC(=O)N(C)C[C@H]1Oc2ncc(-c3ccc(C(=O)N(C)C)cc3)cc2C(=O)N([C@H](C)CO)C[C@H]1C the results were Vaccinia inh 6 and Vaccinia inh Venus 3.
`CCCNC(=O)C[C@@H]1CC[C@H]2[C@@H](COc3ccc(NC(=O)c4cccc(OC)c4)cc3C(=O)N2C)O1` gave Vaccinia inh 2 and Vaccinia inh Venus 3.
`Cc1ccc(S(=O)(=O)N(C)C[C@@H]2Oc3ccc(NC(=O)c4ccncc4)cc3C(=O)N([C@H](C)CO)C[C@@H]2C)cc1` gave Vaccinia inh -5 and Vaccinia inh Venus -4.
C[C@H](CO)N1C[C@H](C)[C@H](CN(C)S(=O)(=O)c2cn(C)cn2)Oc2ccc(NC(=O)c3ccncc3)cc2C1=O was read as Vaccinia inh 12 and Vaccinia inh Venus 11.
Screening CC(C)(C)[S@](=O)N1Cc2cc(C(=O)NCCc3ccncc3)nc(-c3cccc(-c4cccc(C#N)c4)c3)c2[C@@H]1CCO returned Vaccinia inh -16 and Vaccinia inh Venus 3.
`O=C(C[C@H]1C=C[C@@H](NC(=O)Cc2ccccn2)[C@H](CO)O1)NCCc1ccccc1` gave Vaccinia inh -7 and Vaccinia inh Venus -7.
For COc1ccc(S(=O)(=O)Nc2ccc3c(c2)C(=O)N([C@H](C)CO)C[C@H](C)[C@H](CN(C)S(=O)(=O)c2c(C)noc2C)O3)cc1 the results were Vaccinia inh 15 and Vaccinia inh Venus 5.
C[C@@H]1CN([C@H](C)CO)C(=O)c2cc(-c3cncnc3)cnc2O[C@@H]1CN(C)C(=O)Cc1ccccn1 was read as Vaccinia inh 3 and Vaccinia inh Venus 1.
N#C[C@@H]1[C@@H](c2ccccc2-c2ccccc2F)[C@@H](CO)N1C(=O)Cc1ccccc1 was read as Vaccinia inh -27 and Vaccinia inh Venus -28.
Screening O=C(C[C@@H]1CC[C@@H]2[C@H](COC[C@H](O)CN2S(=O)(=O)c2ccccc2)O1)N[C@@H]1CCN(Cc2ccccc2)C1 returned Vaccinia inh -9 and Vaccinia inh Venus -2.
Screening O=C(NCC[C@H]1CC[C@H](NC(=O)C2CCOCC2)[C@@H](CO)O1)c1cc(Cl)cc(Cl)c1 returned Vaccinia inh -5 and Vaccinia inh Venus 0.
Screening Cc1ccccc1S(=O)(=O)NCC[C@H]1CC[C@H](NC(=O)Nc2cccc(Cl)c2)[C@H](CO)O1 returned Vaccinia inh -13 and Vaccinia inh Venus -6.
For Cc1ccc(-c2ccc3c(c2)O[C@@H](CN(C)C(=O)CC2CC2)[C@H](C)CN([C@@H](C)CO)S3(=O)=O)cc1 the results were Vaccinia inh -9 and Vaccinia inh Venus -12.
For C[C@H](CO)N1C[C@H](C)[C@H](CN(C)Cc2ccc(F)cc2)Oc2cc(C#CCN(C)C)ccc2S1(=O)=O the results were Vaccinia inh -32 and Vaccinia inh Venus -19.
Screening CC(=O)n1cc([C@H]2C=C(C(=O)N3CCCCCCC3)O[C@@H](OCc3ccc(CO)cc3)C2)c2ccccc21 returned Vaccinia inh -15 and Vaccinia inh Venus -20.
`Cc1noc(C)c1S(=O)(=O)Nc1ccc2c(c1)C(=O)N([C@@H](C)CO)C[C@@H](C)[C@H](CN(C)C(=O)CCC(F)(F)F)OCCCC[C@@H](C)O2` gave Vaccinia inh -1 and Vaccinia inh Venus -7.
COc1ccccc1NC(=O)N(C)C[C@H]1Oc2ncc(C#CC(C)C)cc2C(=O)N([C@@H](C)CO)C[C@@H]1C was read as Vaccinia inh 2 and Vaccinia inh Venus 6.
For O=C(NCCc1ccncc1)[C@@H]1N[C@@H]2c3ccc(/C=C/c4ccccc4)c(=O)n3C[C@@H]2[C@H]1CO the results were Vaccinia inh 16 and Vaccinia inh Venus 11.
For CCCc1cn(CC[C@H]2CC[C@@H](NC(=O)Nc3ccc4c(c3)OCO4)[C@H](CO)O2)nn1 the results were Vaccinia inh 5 and Vaccinia inh Venus 11.
CO[C@@H]1CN(C)C(=O)c2cc(NC(=O)NC(C)C)ccc2OC[C@@H](C)N(C(=O)CC2CC2)C[C@@H]1C was read as Vaccinia inh 6 and Vaccinia inh Venus 6.
CCCNC(=O)C[C@H]1C[C@H]2c3cc(NS(=O)(=O)c4ccc(F)cc4)ccc3O[C@H]2[C@H](CO)O1 was read as Vaccinia inh 1 and Vaccinia inh Venus -2.
Screening CO[C@H](CN(C)S(=O)(=O)c1ccc(Cl)cc1)[C@H](C)CN(C(=O)Nc1ccccc1F)[C@H](C)CO returned Vaccinia inh -8 and Vaccinia inh Venus -2.
Screening CC(C)NC(=O)N(C)C[C@@H]1OCCCC[C@@H](C)Oc2ccc(NS(=O)(=O)c3cccs3)cc2C(=O)N([C@H](C)CO)C[C@@H]1C returned Vaccinia inh 40 and Vaccinia inh Venus 15.
CC(C)NC(=O)Nc1ccc2c(c1)CC(=O)N([C@H](C)CO)C[C@H](C)[C@@H](CN(C)C)O2 was read as Vaccinia inh 28 and Vaccinia inh Venus 11.
CO[C@@H]1CN(C)C(=O)c2ccc(NS(=O)(=O)c3ccccc3)cc2OC[C@@H](C)N(C(=O)NC(C)C)C[C@@H]1C was read as Vaccinia inh -2 and Vaccinia inh Venus 3.
Screening Cc1noc(C)c1NC(=O)Nc1ccc2c(c1)C(=O)N([C@@H](C)CO)C[C@@H](C)[C@H](CN(C)C)OCCCC[C@H](C)O2 returned Vaccinia inh 13 and Vaccinia inh Venus 6.
For Cc1noc(C)c1NC(=O)Nc1ccc2c(c1)CC(=O)N([C@@H](C)CO)C[C@H](C)[C@H](CN(C)C(=O)Nc1ccc(F)cc1)O2 the results were Vaccinia inh 11 and Vaccinia inh Venus 13.
Cc1cc(C(=O)Nc2cccc3c2O[C@@H](CN(C)S(C)(=O)=O)[C@H](C)CN([C@H](C)CO)C3=O)n(C)n1 was read as Vaccinia inh 30 and Vaccinia inh Venus 12.
Screening C[C@@H]1CN([C@@H](C)CO)C(=O)c2cc(NC(=O)Nc3ccc4c(c3)OCO4)ccc2O[C@@H](C)CCCCO[C@H]1CN(C)C(=O)c1ccccc1 returned Vaccinia inh 21 and Vaccinia inh Venus 10.
For CNC[C@H]1OCCCC[C@H](C)Oc2ccc(NC(=O)Nc3ccc(OC)cc3)cc2C(=O)N([C@H](C)CO)C[C@@H]1C the results were Vaccinia inh 6 and Vaccinia inh Venus 8.

In the list so far, 3 contain a Cl atom:
Screening O=C(NCC[C@H]1CC[C@H](NC(=O)C2CCOCC2)[C@@H](CO)O1)c1cc(Cl)cc(Cl)c1 returned Vaccinia inh -5 and Vaccinia inh Venus 0.
Screening Cc1ccccc1S(=O)(=O)NCC[C@H]1CC[C@H](NC(=O)Nc2cccc(Cl)c2)[C@H](CO)O1 returned Vaccinia inh -13 and Vaccinia inh Venus -6.
Screening CO[C@H](CN(C)S(=O)(=O)c1ccc(Cl)cc1)[C@H](C)CN(C(=O)Nc1ccccc1F)[C@H](C)CO returned Vaccinia inh -8 and Vaccinia inh Venus -2.

Additional records follow.
C[C@@H]1CCCCO[C@H](CN(C)Cc2ccc(Cl)c(Cl)c2)[C@@H](C)CN([C@@H](C)CO)C(=O)c2cc(NC(=O)Nc3ccc4c(c3)OCO4)ccc2O1 was read as Vaccinia inh inconclusive.
Screening CCCC#Cc1ccc([C@@H]2[C@H](CO)N3CCCCN(S(C)(=O)=O)C[C@@H]23)cc1 returned Vaccinia inh -24 and Vaccinia inh Venus -16.
C[C@H]1CCCCO[C@@H](CN(C)C(=O)Nc2ccc(F)cc2)[C@@H](C)CN([C@@H](C)CO)C(=O)c2cc(NS(=O)(=O)c3cn(C)cn3)ccc2O1 was read as Vaccinia inh 7 and Vaccinia inh Venus 2.
C[C@@H]1CCCCO[C@H](CN(C)C(=O)Nc2ccc(C(F)(F)F)cc2)[C@@H](C)CN([C@H](C)CO)C(=O)c2cc(NS(=O)(=O)c3ccc(F)cc3)ccc2O1 was read as Vaccinia inh -20 and Vaccinia inh Venus -7.
Screening N#C[C@H]1[C@H](c2ccccc2-c2ccccc2F)[C@H](CO)N1C(=O)C1CCOCC1 returned Vaccinia inh -3 and Vaccinia inh Venus -5.
Cc1nc(S(=O)(=O)N2CCN(Cc3cccc(OCCO)c3)CC2)cn1C was read as Vaccinia inh 15 and Vaccinia inh Venus 17.
C[C@@H]1CN([C@H](C)CO)S(=O)(=O)c2ccc(C#CCN(C)C)cc2O[C@@H]1CN(C)Cc1ccccc1 was read as Vaccinia inh -16 and Vaccinia inh Venus -20.
For Cc1ccc(S(=O)(=O)Nc2ccc3c(c2)C(=O)N([C@@H](C)CO)C[C@@H](C)[C@H](CN(C)CC2CCCCC2)OCCCC[C@@H](C)O3)cc1 the results were Vaccinia inh inconclusive.
`O=C(C[C@@H]1CC[C@H]2[C@@H](COC[C@H](O)CN2C(=O)C2CCCC2)O1)NCc1ccncc1` gave Vaccinia inh 10 and Vaccinia inh Venus 0.
For C[C@H]1CN([C@@H](C)CO)S(=O)(=O)c2ccc(-c3cncnc3)cc2O[C@@H]1CN(C)C(=O)C1CCC1 the results were Vaccinia inh 10 and Vaccinia inh Venus 5.

Sorted by heavy-atom count (largest number first): 4 of the compounds above
C[C@@H]1CCCCO[C@H](CN(C)Cc2ccc(Cl)c(Cl)c2)[C@@H](C)CN([C@@H](C)CO)C(=O)c2cc(NC(=O)Nc3ccc4c(c3)OCO4)ccc2O1 was read as Vaccinia inh inconclusive.
For Cc1ccc(S(=O)(=O)Nc2ccc3c(c2)C(=O)N([C@@H](C)CO)C[C@@H](C)[C@H](CN(C)CC2CCCCC2)OCCCC[C@@H](C)O3)cc1 the results were Vaccinia inh inconclusive.
For C[C@H]1CN([C@@H](C)CO)S(=O)(=O)c2ccc(-c3cncnc3)cc2O[C@@H]1CN(C)C(=O)C1CCC1 the results were Vaccinia inh 10 and Vaccinia inh Venus 5.
Cc1nc(S(=O)(=O)N2CCN(Cc3cccc(OCCO)c3)CC2)cn1C was read as Vaccinia inh 15 and Vaccinia inh Venus 17.

Screening data deposited in PubChem by Broad Institute.
